Screening results (PubChem)
Mtb hypoxia rep: reduces hypoxia-regulated biosensor signal in M. tuberculosis; M. tuberculosis hypoxia-regulated fluorescent reporter, fluorescence; fluorescence inhibition, % (no concentration beside the values); 300,000 tested, 0.1% active;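 active = 35 to 45% if threefold the growth effect, above 45% if 1.5-fold the growth effect; inactive = the rest, general growth blockers included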;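 note: wells of about 50 µL received 100 nL stock; 0% = vehicle wells and 100% = reference inhibitor wells; whole bacteria with a GFP reporter of the hypoxia response; strong numbers were not always called active; many hits fall short of the cut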
BJeLR lethal: kills HRASV12-expressing BJeLR cells; BJeLR (HRASV12) viability, CellTiter-Glo ATP luminescence, 48 h; reference of the scale not given here; AID 1554; inhibition, % (concentration not given with the values); 300,000 tested, 0.17% active;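 active = replicate mean above 50%; inconclusive = above 50% but judged a plate artefact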;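 note: 50 nL library stock added to about 25 µL; numbers are from one replicate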
ugtP null kill: kills S. aureus RN4220 lacking UgtP; S. aureus RN4220 ugtP deletion, OD600 growth, 16 h; some inactives read as strong as hits; growth inhibition, % (no concentration beside the values); 330,000 tested, 0.54% active; AID 1259309;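 active = z-score under -3 and OD600 up to 0.15 on both plates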;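 note: plate controls were untreated wells for no effect and antibiotic for full effect; wells of about 80 µL received 100 nL stock; the first replicate is given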
PrP 5UTR inh: suppresses PrP 5' UTR mRNA reporter expression | cell-based PrP 5' UTR mRNA reporter, plate reader | inhibition, % (concentration not given with the values) | 340,000 tested, 0.35% active;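 active = every replicate at 50% or more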;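 note: 0 = median of the neutral control wells; tested in H4 reporter cells; numbers are from one replicate; inactives centre near -14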
Sa RN4220 lethal: kills Staphylococcus aureus RN4220; AID 1259311; inhibition, % (test concentration not listed); S. aureus RN4220 growth, OD600, 16 h; 330,000 tested, 0.33% active;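 active = z-score of -3 or lower and OD600 up to 0.18 on both plates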;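 note: plate controls were untreated cells for no effect and reference antibiotic for full effect; stock transfer was 100 nL into about 80 µL; one replicate is shown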
Bead autofluor: flagged as autofluorescent in microsphere protease counterscreen. compound autofluorescence counterscreen, microsphere flow cytometry; stronger effect = higher value. fluorescence intensity (test concentration not listed). 360,000 tested, 3.1% active;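 active = at least 3 SD above the mean of all compounds, about 16000 in these data; inconclusive = too few beads counted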;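 note: 100 nL of 1 mM stock went into each well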
Mtb hypoxia rep growth: also measured in Mtb hypoxia rep; calls as there; growth inhibition, %; measured here: M. tuberculosis growth (absorbance);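 0% = vehicle and 100% = reference antibiotic; read after six days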
* marks the source's active call; other numbers are inactive results; ? = inconclusive; / = not tested or not shown.

Values run as follows: Mtb hypoxia rep | Mtb hypoxia rep growth | BJeLR lethal | ugtP null kill | PrP 5UTR inh | Sa RN4220 lethal | Bead autofluor
CCOCCCNC(=O)C(NC(=O)c1ccc(NC(C)=O)cc1)c1ccc(Cl)cc1 (stereo unspecified)
  7.2 | 13.8 | -1.4 | 7.1 | -17.8 | 3.3 | 2161
CCN1CCN(C(=O)COCc2cc(-c3ccc4c(c3)OCO4)on2)CC1
  3.5 | 2.9 | -13.1 | 7.7 | -8.9 | 2.2 | 5957
COC(=O)C(C)Sc1nnc(SC(C)C(=O)OC)s1 (stereo unspecified)
  22.8 | 1.0 | 1.8 | 4.9 | -15.3 | -2.0 | 2905
COc1ccc(NC(=O)c2c3c(nc4ccccc24)CCC3)cc1S(=O)(=O)N1CCOCC1
  2.1 | 2.7 | -16.2 | 2.3 | -11.0 | 2.8 | 1929
O=S(=O)(NCc1cccs1)c1ccc(Cl)s1
  9.2 | 5.4 | -5.4 | 15.3 | 5.8 | 9.8 | ?
CC(CO)NC(=O)C(C)C1C[C@@]1(C)C(NC(=O)OCc1ccccc1)c1ccccc1 (stereo partly specified)
  7.4 | 13.3 | / | -1.7 | / | 2.5 | /
Cc1ccc(-c2c(C(=O)NN=Cc3ccco3)nnn2-c2nonc2N)cc1
  2.4 | 3.4 | / | -11.4 | / | 3.4 | /
CCC1(c2ccc(F)cc2)NC(=O)N(CC(=O)c2cc(C)n(C3CC3)c2C)C1=O (stereo unspecified)
  1.8 | 1.5 | -2.9 | 4.9 | -26.4 | 9.7 | ?
CC(Sc1nnc2n1CCCCC2)C(=O)Nc1ccccc1[N+](=O)[O-] (stereo unspecified)
  4.6 | 7.6 | / | 1.4 | -1.1 | 3.0 | 3810
Cc1ccc(C(C)c2c(C)c([N+](=O)[O-])cc(C)c2[N+](=O)[O-])cn1 (stereo unspecified)
  4.6 | 9.9 | 0.9 | -0.6 | -21.9 | -1.8 | ?
CC(=O)c1ccc(OC(C)C)c(CSc2nc(O)cc(=O)[nH]2)c1
  / | / | -10.0 | -6.2 | -12.0 | 1.0 | 2706
COc1ccc(S(=O)(=O)N2CCCC2C(=O)NCc2ccccc2Cl)cc1 (stereo unspecified)
  12.3 | 4.8 | 1.0 | 2.6 | -6.0 | -1.8 | 3114
O=C(O)c1cc(S(=O)(=O)O)ccc1O
  / | / | -4.1 | 3.3 | -10.6 | 2.3 | 4403
O=C(CN1C(=O)CNC1=O)Nc1ccc(Cl)cc1
  -1.2 | -2.6 | 0.8 | 5.7 | -5.7 | 2.3 | 4230
O=C(CNc1cccc(S(=O)(=O)N2CCOCC2)c1)Nc1cccc(Br)c1
  -16.8 | -12.3 | 3.2 | -7.7 | -20.3 | 8.4 | 4728
Cc1ccc(NC(=O)CCn2nc([N+](=O)[O-])cc2C)nc1
  5.2 | 3.2 | 15.7 | 4.8 | -19.6 | 3.8 | 1965
Nc1cc(F)ccc1N1CCCCCC1
  -6.1 | -9.0 | -4.1 | -6.7 | -27.6 | 4.2 | 4307
COC(=O)C(CCCN1C(=O)c2ccccc2C1=O)(NC(C)=O)c1nn[nH]n1 (stereo unspecified)
  4.9 | 2.9 | 1.2 | 12.8 | -15.9 | 2.8 | 4074
Cc1ccccc1-c1ccc(Nc2ccc(N3CCOCC3)cc2)nn1
  11.8 | 17.1 | -1.0 | -4.4 | -46.0 | 6.6 | 6167
CC(=O)N1CCC(C(=O)NCCOc2cccc(C)c2)CC1
  -1.2 | -1.8 | -5.1 | 1.9 | 3.5 | 4.3 | 4995
CCOC(=O)c1cc2sccc2n1CC(=O)N1c2ccccc2CC1C (stereo unspecified)
  -0.5 | -2.5 | 5.3 | 9.5 | -34.6 | 5.9 | 10306
Cn1c(=O)oc2cc(S(=O)(=O)NC3CCN(Cc4ccccc4)CC3)ccc21
  2.1 | 11.8 | 5.3 | -4.0 | -4.7 | -9.8 | 5955
COc1cc(/C=C2\SC(c3ccc(C)cc3)=NC2=O)cc(OC)c1OC
  8.5 | 12.2 | 2.2 | -1.5 | -25.9 | 3.2 | 6485
COC(=O)C1=C(c2ccc(-c3ccccc3)c(F)c2)CC2CCC1N2C(=O)NC(C)C (stereo unspecified)
  -3.6 | 9.9 | / | -22.1 | / | -0.8 | /
O=S(=O)(c1ccc(Cl)nc1)N1CCCc2ccccc21
  5.6 | 17.0 | 4.1 | 4.7 | -32.1 | 8.1 | 2511
Cc1ccc(N2CS(=O)(=O)/C(=C/N(C)C)C2=O)cc1
  2.1 | 9.3 | -0.5 | -5.7 | -35.8 | 3.3 | 21872*
CC1CN(c2ccc([N+](=O)[O-])c(N3CCCCC3)c2)CCN1 (stereo unspecified)
  6.4 | -2.0 | 4.9 | 3.2 | -21.5 | 4.3 | ?
CCC(C)(C(=O)NC1CCCC1)N(Cc1cccs1)C(C)=O (stereo unspecified)
  6.2 | 12.7 | -2.4 | -0.8 | -16.6 | 0.4 | 4651
CC(C)C(NC(=O)Cc1ccccc1)C(=O)N1CCN(c2cccc(Cl)c2)CC1 (stereo unspecified)
  0.1 | 3.4 | / | -6.4 | -21.7 | -2.7 | 3969
O=S(=O)(c1ccccc1)C(/C=N\O)/C=C/c1ccccc1 (stereo unspecified)
  / | / | 5.5 | / | -2.2 | / | 2745
O=C(N=C1SC2CS(=O)(=O)CC2N1c1ccc(F)cc1)C1CCCCC1 (stereo unspecified)
  4.2 | 6.6 | 2.6 | 3.7 | -22.6 | 0.2 | 4906
O=C1C(=O)N(CCCN2CCOCC2)C(c2ccc(Cl)cc2)/C1=C(\O)c1ccc2c(c1)OCCO2 (stereo unspecified)
  -0.1 | 1.0 | 9.1 | 4.4 | -12.8 | 1.7 | 5441
CCOc1cc(S(=O)(=O)n2nc(C)cc2C)ccc1F
  4.3 | 9.4 | 1.4 | 0.1 | -25.9 | 5.1 | 5843
O=C(CS(=O)(=O)c1cn(CC(=O)N2CCOCC2)c2ccccc12)Nc1ccccc1F
  -5.5 | 4.4 | 0.0 | 1.1 | 1.2 | 0.6 | 5703
CCN(C(=O)CN1C(=O)S/C(=C\c2ccc(Cl)cc2)C1=O)C1CCS(=O)(=O)C1 (stereo unspecified)
  11.0 | 0.6 | -0.4 | 17.1 | 0.3 | 23.2 | 4599
O=C(/C=N/O)NCCCN1CCOCC1
  / | / | 7.3 | / | -23.8 | / | 2456
Cc1cc(OCC(=O)NNC(=O)c2ccncc2)cc(C)c1Cl
  1.8 | 7.9 | / | -1.0 | -1.1 | 1.9 | 5528
NC(=O)c1ccc(-n2nnnc2SCC(=O)Nc2ccccc2F)cc1
  4.9 | 1.3 | -2.8 | 14.2 | -11.7 | 1.9 | 3112
O=C(Nc1ccc(C(=O)N2CCCCC2)cc1)C1CCCCC1
  18.5 | 11.1 | -4.9 | -0.5 | -5.5 | 4.2 | 4148
O=c1[nH]c(CNCc2cccnc2)nc2ccccc12
  -0.8 | -7.6 | 7.7 | -1.5 | -4.2 | 4.3 | 4769
COc1ccccc1N=Cc1c(O)c2ccccc2oc1=O
  9.7 | 2.4 | 4.9 | 15.2 | -1.2 | 3.1 | 10264
COc1ccc(OCC(=O)Nc2c(C(=O)N(CCN(C)C)Cc3ccco3)oc3ccccc23)cc1
  -11.0 | -7.4 | 8.2 | -7.9 | -24.5 | -3.0 | 5429
OCC1CCCCN1CC(O)COC(c1ccc(F)cc1)c1ccc(F)cc1 (stereo unspecified)
  8.8 | 10.1 | 3.8 | 7.4 | -21.4 | -4.1 | 3835
N#CC1=C(N)OC(c2ccccc2)=C(C#N)C1c1ccc2c(c1)OCO2 (stereo unspecified)
  8.6 | 10.6 | -8.3 | -0.1 | -5.7 | 3.8 | 3229
CC1CN(Cc2ccccc2)C(=S)N(c2ccccc2)C1=O (stereo unspecified)
  9.7 | 14.0 | / | 2.1 | 0.6 | 4.9 | 2902
CN1C(=O)/C(=C/c2ccco2)SC1=Nc1cccc(C(=O)O)c1
  0.1 | -0.1 | 1.9 | -5.4 | -10.5 | 6.5 | 4164
COc1ccc(-n2c(-c3ccc(Br)cc3)c[n+]3c2CCC3)cc1
  / | / | 3.3 | / | -15.3 | / | 4171
Cc1ccc(-c2cc(C(=O)NCCCN3CCOCC3)c3ccccc3n2)cc1
  13.0 | 6.5 | 3.5 | 5.6 | -6.4 | 0.1 | 4775
O=C(/C=C/c1ccco1)N1CCc2ccccc21
  15.0 | 12.5 | 20.9 | 2.4 | -24.0 | 6.2 | 3996
O=C1c2ccc(-c3ccc(F)cc3OCc3ccccc3)cc2S(=O)(=O)c2cccc(C(=O)N3CCCC3)c21
  0.5 | 9.9 | / | -30.4 | -18.8 | -12.4 | 3815
Cc1c(OCC(=O)NCCCn2ccnc2)ccc2c3c(c(=O)oc12)CCC3
  2.7 | 5.7 | 4.8 | 0.7 | -4.1 | -1.2 | 5713
COc1ccc(N(C)S(=O)(=O)c2cccc3cccnc23)c(OC)c1
  -1.7 | 10.2 | 3.3 | 1.2 | -49.9 | 4.4 | 16783*
COc1ccc(N=CC2=C(O)CC(C)(C)CC2=O)cc1
  / | / | -7.7 | -0.2 | -33.9 | 1.1 | 5824
O=C(c1ccc(F)cc1)C1CCN(C(=O)NC2CCCCC2)CC1
  3.0 | -0.6 | 7.4 | -5.2 | -23.7 | -2.2 | 6595
CCOCCCNC(=S)N(Cc1ccco1)Cc1cc2cc3c(cc2[nH]c1=O)OCCO3
  9.4 | -4.9 | -7.2 | 13.9 | -37.0 | 6.0 | 4472
COc1ccc(C)cc1Nc1n[n+](C)c(-c2ccc(O)cc2O)s1
  4.2 | 5.9 | -8.1 | -2.6 | -26.3 | 2.6 | 3582
CCc1ccc(NC(=O)CSc2nnc(CNC(=O)c3ccc(OC)cc3)o2)cc1
  3.6 | -3.2 | -2.3 | 2.2 | -26.0 | 0.5 | 4886
O=C1C2CCCN2C(=O)N1CCCCN1CCN(c2cccc(C(F)(F)F)c2)CC1 (stereo unspecified)
  3.9 | -2.0 | -4.7 | 13.5 | 10.0 | 1.7 | /
O=C(CC1SC(N2CCCC2)=NC1=O)Nc1ccc(C(=O)N2CCCC(C(F)(F)F)C2)cc1 (stereo unspecified)
  3.0 | 3.9 | -1.3 | 1.1 | -27.4 | 1.0 | ?
CC(NC(=O)/C=C/c1ccccc1[N+](=O)[O-])C1CC2CCC1C2 (stereo unspecified)
  / | / | -8.0 | / | -19.9 | / | 5045

Looked up above.
Cc1cc(OCC(=O)NNC(=O)c2ccncc2)cc(C)c1Cl – Bead autofluor = 5528
COc1ccc(OCC(=O)Nc2c(C(=O)N(CCN(C)C)Cc3ccco3)oc3ccccc23)cc1 – Mtb hypoxia rep = -11.0
O=C(c1ccc(F)cc1)C1CCN(C(=O)NC2CCCCC2)CC1 – Mtb hypoxia rep growth = -0.6
O=C(/C=N/O)NCCCN1CCOCC1 – PrP 5UTR inh = -23.8

One compound at a time, from the list above. Order of screens: Mtb hypoxia rep | Mtb hypoxia rep growth | BJeLR lethal | ugtP null kill | PrP 5UTR inh | Sa RN4220 lethal | Bead autofluor
`CCOc1cc(S(=O)(=O)n2nc(C)cc2C)ccc1F` is entered as 4.3 | 9.4 | 1.4 | 0.1 | -25.9 | 5.1 | 5843
`O=c1[nH]c(CNCc2cccnc2)nc2ccccc12` is entered as -0.8 | -7.6 | 7.7 | -1.5 | -4.2 | 4.3 | 4769

(more compounds)
Values run as follows: Mtb hypoxia rep | Mtb hypoxia rep growth | BJeLR lethal | ugtP null kill | PrP 5UTR inh | Sa RN4220 lethal | Bead autofluor
CCOC(=O)c1nnn(-c2nonc2N)c1-c1ccc(OC)cc1
  / | / | 1.7 | 7.6 | -27.3 | 3.4 | 2677
CC1CCN(S(=O)(=O)c2cccc(-c3cn4cc(Cl)ccc4n3)c2)CC1
  -4.1 | 3.3 | 0.1 | -1.4 | -11.4 | 8.6 | 3145
COc1ccc(-n2nc(C(=O)NCC(=O)Nc3cc(OC)c(OC)c(OC)c3)c3ccccc3c2=O)cc1OC
  -2.9 | 4.6 | 16.4 | -1.4 | -34.7 | 2.9 | 3648
COc1ccc(/C=N/N(c2ccccc2)c2ccccc2)cc1O
  / | / | 5.1 | / | -11.6 | / | 6485
COC(=O)c1cc(OC)c(OC)cc1NC(=O)Cc1cccs1
  -10.7 | -10.5 | 7.9 | 1.9 | -19.7 | 0.1 | 3244
